Compound activity deposited in PubChem by Broad Institute.
MLL AF4-AF9 inh: inhibitors of human MLL-AF4/AF9 interaction | actives 0.47% (n = 350,000) | AID 651704 | inhibition, % at 10 µM | AlphaScreen, biotin-AF4 peptide binding to FLAG-AF9;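 active means every replicate reaching a set inhibition limit, whatever the replicate mean, cut at about 25% in these data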;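 further: 0% = plate neutral control median and 100% = total signal loss; the record names both 10 and 1 µM as test concentration; the first replicate is given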
Target sequence (P42568 whole entry, looked up): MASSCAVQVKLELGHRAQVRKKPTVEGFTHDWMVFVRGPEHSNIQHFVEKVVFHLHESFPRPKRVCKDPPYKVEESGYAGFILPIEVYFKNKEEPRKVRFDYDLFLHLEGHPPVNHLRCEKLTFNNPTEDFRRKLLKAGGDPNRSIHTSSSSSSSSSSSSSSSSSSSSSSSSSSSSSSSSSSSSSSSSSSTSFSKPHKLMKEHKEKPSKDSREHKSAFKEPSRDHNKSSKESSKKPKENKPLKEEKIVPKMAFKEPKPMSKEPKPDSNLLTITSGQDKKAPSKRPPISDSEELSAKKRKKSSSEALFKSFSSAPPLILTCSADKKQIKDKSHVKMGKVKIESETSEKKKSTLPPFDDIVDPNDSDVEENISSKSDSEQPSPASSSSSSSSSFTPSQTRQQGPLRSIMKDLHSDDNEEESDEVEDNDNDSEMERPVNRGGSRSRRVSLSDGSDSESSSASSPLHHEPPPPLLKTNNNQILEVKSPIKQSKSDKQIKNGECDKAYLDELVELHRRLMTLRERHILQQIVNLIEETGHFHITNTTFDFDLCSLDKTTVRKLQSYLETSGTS
* hit, by the source's call; & = joins results of further samples.

> C[C@H](CO)N1C[C@H](C)[C@@H](CN(C)Cc2ccc(Oc3ccccc3)cc2)Oc2ccc(NC(=O)Cc3ccccc3)cc2C1=O
  MLL AF4-AF9 inh = 3.2

> Cc1ccc(S(=O)(=O)N(C)C[C@H]2Oc3ccc(NC(=O)Cn4cnnn4)cc3CC(=O)N([C@H](C)CO)C[C@H]2C)cc1
  MLL AF4-AF9 inh = 1.4

> C[C@H](CO)N1C[C@H](C)[C@@H](CN(C)C(=O)NC2CCCCC2)Oc2c(NC(=O)NC3CCCCC3)cccc2C1=O
  MLL AF4-AF9 inh = -1.4

> COCC(=O)N1CC(=O)N2[C@H](CO)[C@@H](c3ccc(C#Cc4cccnc4)cc3)[C@H]2C1
  MLL AF4-AF9 inh = 5.9

> C[C@@H]1CCCCO[C@H](CN(C)S(=O)(=O)c2ccccc2)[C@H](C)CN([C@@H](C)CO)C(=O)c2cc(NC(=O)Cc3ccccc3)ccc2O1
  MLL AF4-AF9 inh = -0.4

> COc1ccccc1NC(=O)N1CC[C@@H]2[C@H]1c1cc(-c3ccccc3)ccc1N(C)[C@@H]2CO
  MLL AF4-AF9 inh = -0.4

> COc1ccccc1CNc1nc2cc(-c3ccc(OC)c(OC)c3)sc2c(=O)n1C
  MLL AF4-AF9 inh = -1.3

> COCCNC(=O)C[C@H]1C[C@H]2c3cc(NC(=O)c4cccnc4)ccc3O[C@H]2[C@@H](CO)O1
  MLL AF4-AF9 inh = -2.8

> CO[C@H]1CN(C)C(=O)c2ccc(NS(=O)(=O)c3ccccc3C)cc2OC[C@H](C)N(C)C[C@@H]1C
  MLL AF4-AF9 inh = 0.8

> CN(C)CC(=O)N[C@H]1CC[C@@H](CCNC(=O)C2CCCCC2)O[C@@H]1CO
  MLL AF4-AF9 inh = 0.6

> C[C@@H]1CN([C@@H](C)CO)C(=O)c2cccc(NS(=O)(=O)c3ccccc3)c2O[C@@H]1CN(C)C(=O)Nc1ccccc1
  MLL AF4-AF9 inh = -11

> CO[C@H]1CN(C)C(=O)c2ccc(NS(=O)(=O)c3ccccc3)cc2OC[C@@H](C)NC[C@@H]1C
  MLL AF4-AF9 inh = -4.5

> COc1ccc(CN(C)C[C@@H]2Oc3ccc(NC(=O)Nc4ccc(F)cc4)cc3CC(=O)N([C@H](C)CO)C[C@@H]2C)cc1
  MLL AF4-AF9 inh = 0.5

> C/C=C/c1ccc2c(c1)O[C@H](CN(C)Cc1ccccc1F)[C@H](C)CN([C@@H](C)CO)S2(=O)=O
  MLL AF4-AF9 inh = 12

> C[C@@H]1CN([C@H](C)CO)C(=O)c2cc(NS(C)(=O)=O)ccc2O[C@H]1CN(C)C(=O)Nc1ccc(C(F)(F)F)cc1
  MLL AF4-AF9 inh = -1.5

> COc1cccc(S(=O)(=O)N[C@@H]2C=C[C@H](CC(=O)NCc3ccncc3)O[C@H]2CO)c1
  MLL AF4-AF9 inh = -1.0

> O=C(Nc1ccc2c(c1)[C@@H]1C[C@H](CC(=O)N3CCc4ccccc4C3)O[C@@H](CO)[C@@H]1O2)c1ccc2c(c1)OCO2
  MLL AF4-AF9 inh = 0.8

> CN(C)CC(=O)Nc1ccc2c(c1)[C@H]1C[C@H](CC(=O)NCc3cccc(F)c3)O[C@H](CO)[C@H]1O2
  MLL AF4-AF9 inh = 0.4

> CC(=O)N(C)C[C@H]1Oc2ncc(-c3cccc(C#N)c3)cc2C(=O)N([C@H](C)CO)C[C@@H]1C
  MLL AF4-AF9 inh = -1.7

> C/C=C/c1ccc([C@H]2[C@@H](CO)N(S(C)(=O)=O)[C@@H]2CN(CC)C(C)=O)cc1
  MLL AF4-AF9 inh = -0.2

> CNC[C@@H]1OCCCC[C@@H](C)Oc2ccc(NC(=O)CCC(F)(F)F)cc2C(=O)N([C@H](C)CO)C[C@@H]1C
  MLL AF4-AF9 inh = -4.0

> O=C(Nc1ccccc1)NC1(c2cn(CC(=O)N3CCN(c4ccccc4)CC3)nn2)CCCCC1
  MLL AF4-AF9 inh = -4.9

> COCC(=O)N(C)C[C@H]1Oc2ncc(C#Cc3ccncc3)cc2C(=O)N([C@@H](C)CO)C[C@@H]1C
  MLL AF4-AF9 inh = -11

> C[C@@H]1CN([C@@H](C)CO)C(=O)c2cc(NS(=O)(=O)c3ccccc3)ccc2O[C@H]1CN(C)Cc1ccncc1
  MLL AF4-AF9 inh = -2.5

> C[C@@H]1CN([C@@H](C)CO)C(=O)c2cccc(NC(=O)C3CCOCC3)c2O[C@H]1CN(C)Cc1ccc2c(c1)OCO2
  MLL AF4-AF9 inh = -1.4

> Cc1noc(C)c1S(=O)(=O)Nc1ccc2c(c1)CC(=O)N([C@@H](C)CO)C[C@@H](C)[C@@H](CN(C)C(=O)Nc1ccccc1)O2
  MLL AF4-AF9 inh = 2.5

> COc1ccc2c3c([nH]c2c1)[C@H](CO)N(C(=O)Nc1cccc(F)c1)CC31CN(S(=O)(=O)c2cccc(C)c2)C1
  MLL AF4-AF9 inh = 0.0

> C[C@H](CO)N1C[C@H](C)[C@@H](CN(C)S(=O)(=O)CC(F)(F)F)OCc2ccccc2-c2ccccc2C1=O
  MLL AF4-AF9 inh = -4.4

> CCCNC(=O)C[C@H]1CC[C@H]2[C@@H](COC[C@@H](O)CN2Cc2cccc(F)c2)O1
  MLL AF4-AF9 inh = -0.4

> CNc1cc(-c2ccc(O)cc2C)ncn1
  MLL AF4-AF9 inh = 2.4

> COc1ccc2c3c(n(C)c2c1)[C@H](CO)N(Cc1ccc2c(c1)OCO2)CC31CCN(C(C)=O)CC1
  MLL AF4-AF9 inh = 0.5

> C[C@@H]1CCCCO[C@H](CN(C)C(=O)NC2CCCCC2)[C@@H](C)CN([C@@H](C)CO)C(=O)c2cc(NS(=O)(=O)c3cn(C)cn3)ccc2O1
  MLL AF4-AF9 inh = 0.6

> CNC[C@H]1Oc2ncc(-c3ccccc3C)cc2C(=O)N([C@H](C)CO)C[C@H]1C
  MLL AF4-AF9 inh = 5.2

> COc1ccc(NC(=O)N(C)C[C@H]2Oc3ccc(NS(C)(=O)=O)cc3CC(=O)N([C@H](C)CO)C[C@@H]2C)cc1
  MLL AF4-AF9 inh = -2.7

> C[C@@H]1CN([C@H](C)CO)C(=O)c2c(c3ccccc3n2C)-c2ccccc2CO[C@@H]1CN(C)Cc1ccc2c(c1)OCCN2C
  MLL AF4-AF9 inh = 50*

> C[C@@H]1CN([C@H](C)CO)C(=O)CCCn2cc(nn2)CO[C@@H]1CN(C)S(=O)(=O)c1ccc(-c2ccccc2)cc1
  MLL AF4-AF9 inh = 3.0

> CC(=O)N1CCCCN2[C@@H](CO)[C@H](c3ccc(-c4cccc(C(=O)N(C)C)c4)cc3)[C@@H]2C1
  MLL AF4-AF9 inh = -4.2

> CCCNC(=O)N1C[C@@H](O)COC[C@@H]2O[C@@H](CC(=O)N[C@H]3CCN(Cc4ccccc4)C3)CC[C@H]21
  MLL AF4-AF9 inh = -1.1

> COc1ccccc1-c1cnc(C(O)c2c(C)cc(C)cc2C)[nH]1 (centres undefined)
  MLL AF4-AF9 inh = 2.1

> CCNC(=O)[C@H]1[C@H](CO)[C@H]2Cn3c(ccc(C4=CCCCC4)c3=O)[C@@H]1N2Cc1cocn1
  MLL AF4-AF9 inh = -1.8

Next section
structure,MLL AF4-AF9 inh
COc1ccc(C2CC(c3cccc(OC)c3)=NN2c2ccc(S(N)(=O)=O)cc2)cc1 (centres undefined),-6.4
CC(C)CC#Cc1ccc2c(c1)O[C@@H](CN(C)Cc1ccc3c(c1)OCO3)[C@H](C)CN([C@@H](C)CO)S2(=O)=O,1.0
C[C@H](CO)N1C[C@H](C)[C@H](CN(C)Cc2ccccc2O)OCc2cn(nn2)CCCC1=O,-2.6
CNC(=O)C[C@H]1CC[C@H]2[C@@H](COC[C@H](O)CN2S(=O)(=O)c2cccc(Cl)c2)O1,-0.4
C[C@@H]1CN([C@@H](C)CO)C(=O)c2cc(C3=CCCC3)cnc2O[C@H]1CN(C)C(=O)c1ccccn1,-2.3
CCOC(=O)[C@]12CCCC=C1N(Cc1cccc3ccccc13)C(=O)[C@H](CC(=O)N1CCCC1)C2,3.5
COc1cc(NS(=O)(=O)c2cc(NC(C)=O)ccc2OC)c(OC)cc1NC(=O)c1ccccc1,4.1
C[C@H]1CN([C@@H](C)CO)C(=O)c2cc(-c3ccncc3)cnc2O[C@@H]1CN(C)Cc1ccc(F)cc1,-1.7
COc1ccc2c3c(n(C)c2c1)[C@@H](CO)N(Cc1cccc(Cl)c1)CC31CCN(C(C)=O)CC1,-3.3
CCCN1C[C@H](C)[C@H](OC)CN(C)C(=O)c2ccc(NC(=O)Nc3ccccc3F)cc2OC[C@H]1C,0.1
Cc1nc2nc(C)c(C)nc2nc1C,-57
CCCCCCSc1ccc(-c2nc3ccc(Cl)cn3c2NCCCC)cc1OC,19&5.1
COc1cc(/C=C/CNC[C@H]2O[C@@H](n3cnc4c(=O)[nH]c(N)nc43)[C@H](O)[C@@H]2O)ccc1O,-2.1
CO[C@@H](CN(C)C(=O)c1cnccn1)[C@H](C)CN([C@H](C)CO)S(=O)(=O)c1ccc(C)cc1,-0.3
CCC(=O)N1CC2(CCN(C(=O)Cc3ccccc3)CC2)c2c(n(C)c3cc(OC)ccc23)[C@H]1CO,4.2
C[C@@H]1CN([C@@H](C)CO)C(=O)c2cc(NS(=O)(=O)c3ccc(F)cc3)ccc2O[C@@H]1CN(C)S(=O)(=O)c1cccs1,2.0
CC(=O)Nc1cccc(-c2ccnc3c2CC(C(=O)NCC2CCOCC2)O3)c1 (centres undefined),-0.9
CC[C@]12C(=O)N(C)C[C@H]([C@@H]3C(=O)N(C)C(=O)[C@@H]31)N2C(=O)c1ccc(F)cc1,-1.6
C[C@@H]1CCCCO[C@@H](CN(C)S(=O)(=O)c2cccs2)[C@@H](C)CN([C@@H](C)CO)C(=O)c2cc(N(C)C)ccc2O1,-0.5
O=C(C[C@H]1C=C[C@@H](NS(=O)(=O)c2ccc(F)cc2)[C@@H](CO)O1)N1CCc2ccccc2C1,-2.9
Cc1ccc(S(=O)(=O)N(C)C[C@@H]2OCCCC[C@H](C)Oc3ccc(NC(=O)Nc4c(C)noc4C)cc3C(=O)N([C@@H](C)CO)C[C@@H]2C)cc1,5.5
CCCCN1C(=O)C(=O)NC[C@@H]1Cc1ccc(O)cc1,-4.0
CO[C@H]1CN(C)C(=O)c2cc(NS(C)(=O)=O)ccc2OC[C@H](C)N(C(=O)C2CCCC2)C[C@H]1C,-0.7
C[C@H](CO)N1C[C@H](C)[C@@H](CN(C)C(=O)c2ccccc2)Oc2ncc(/C=C/c3ccccc3)cc2C1=O,4.9
COc1ccccc1-c1ccc([C@H]2[C@H](C#N)N(C(=O)C3CCC3)[C@H]2CO)cc1,0.4
COc1cccc(C(=O)Nc2ccc3c(c2)C(=O)N(C)[C@@H]2CC[C@H](CC(=O)NCC4CC4)O[C@@H]2CO3)c1,-2.1
C[C@H]1CN([C@@H](C)CO)C(=O)c2cccc(NC(=O)c3ccc(-c4nccs4)cc3)c2O[C@@H]1CN(C)S(=O)(=O)c1ccccc1,2.3
CCCCNC(=O)C1(N2C(=O)c3ccccc3C2=O)CCCC1,-1.7
C[C@H](CO)N1C[C@H](C)[C@H](CN(C)C(=O)c2ccc(F)cc2)Oc2ncc(Br)cc2C1=O,-2.7
CO[C@H]1CN(C)C(=O)c2cc(NC(=O)C3CC3)ccc2OC[C@@H](C)N(Cc2cccnc2)C[C@@H]1C,-0.5
C/C=C/c1ccc2c(c1)O[C@@H](CN(C)C(=O)Cc1ccccn1)[C@@H](C)CN([C@@H](C)CO)S2(=O)=O,-3.9
C[C@@H]1CN([C@H](C)CO)C(=O)Cc2cc(NC(=O)Cc3ccccc3)ccc2O[C@@H]1CN(C)S(=O)(=O)c1ccc(F)cc1,-0.9
C[C@H]1CN([C@@H](C)CO)C(=O)c2cc(C#Cc3cccnc3)cnc2O[C@@H]1CN(C)S(C)(=O)=O,-5.5
CCC(=O)Nc1ccc2c(c1)OC[C@@H](C)N(C(=O)c1cccnc1)C[C@H](C)[C@H](OC)CN(C)C2=O,-2.7
OC[C@@H]1[C@@H](c2ccc(C#Cc3ccccc3F)cc2)[C@H]2CN(Cc3cncnc3)CCCCN12,-11
O=C(NC1CCCC1)[C@@H]1[C@@H](CO)[C@@H]2Cn3c(ccc(C4=CCCC4)c3=O)[C@H]1N2C(=O)c1ccccc1,-2.2
C[C@@H]1CN([C@@H](C)CO)C(=O)c2cccc(NC(=O)Nc3ccc(F)cc3)c2O[C@@H]1CN(C)C(=O)NC1CCCCC1,-2.9
O=C(Nc1ccc(Cl)cc1)N[C@@H]1CC[C@@H](CCNS(=O)(=O)c2ccccc2F)O[C@H]1CO,0.8
Cc1ccccc1-c1cnc(C(O)c2cc(Cl)cc(Cl)c2)[nH]1 (centres undefined),2.1
CO[C@H]1CN(C)C(=O)c2cc(NC(=O)c3ccno3)ccc2OC[C@@H](C)N(S(C)(=O)=O)C[C@@H]1C,-6.6
CN1C[C@@H]2[C@H](c3ccccc31)[C@@H](CO)N2C(=O)c1ccccn1,-1.6
C[C@H](CO)N1C[C@H](C)[C@H](CN(C)Cc2ccc(Oc3ccccc3)cc2)Oc2c(NC(=O)Nc3ccccc3)cccc2C1=O,0.3
CC(CNC1CCCCC1)OC(=O)c1ccccc1 (centres undefined),-0.2
C[C@@H]1CCCCO[C@H](CN(C)Cc2ccc(Cl)c(Cl)c2)[C@@H](C)CN([C@H](C)CO)C(=O)c2cc(NS(=O)(=O)c3cccs3)ccc2O1,-1.6
CCN(C(=O)COC(=O)c1cccc(S(=O)(=O)N(C)C)c1)c1c(N)n(Cc2ccccc2)c(=O)[nH]c1=O,1.0
C[C@@H]1CN([C@H](C)CO)C(=O)c2cccc(N(C)C)c2O[C@@H]1CN(C)C(=O)Nc1cccc2ccccc12,0.1

This is a subset (hit frequency here may not be typical).
